Source: PubChem BioAssay
nsP2pro primary: CHIKV nsP2 protease inhibition, primary qHTS; Q8JUX6; FRET peptide cleavage, nsP2pro, fluorescence 1 h; Potency, µM (highest dose often 24.9 µM), for the others: top-dose activity change, negative = inhibition, most hits filed as inhibitors; hit rate 1.1% among 31,000; active means well fitted inhibition curve with a large enough effect; inconclusive means small, poorly fitted or top-dose-only effect; inactive means no such curve, though single readings can be large or run the other way; further: nearly all actives have a fitted effect of over 60% in size; a reference inhibitor and vehicle were the controls
Starred values were filed as active, the others as inactive; i = inactive; u = inconclusive; & = joins results of further samples; [ ] = remark or other dose. On the % scale 0 is the no-effect control and ±100 the full control effect; potency means the concentration at half of the fitted maximal effect. These rows are one share of the data (hit frequency here may not be typical).

SMILES	nsP2pro primary
CC(C)(C)OC(=O)N1CCC(c2c(C(=O)NCc3ccco3)cnn2-c2ccc(F)cc2F)CC1	-27.0%
Cc1cccc(NC(=O)C2CCC(CNS(=O)(=O)c3csc(C(N)=O)c3)CC2)c1C (centres undefined)	-12.8%
Cc1ccc(N=CN(C)C=Nc2ccc(C)cc2C)c(C)c1	-4.2%
Cc1ccc(NC(=O)Nc2nnc(SCC(=O)Nc3ccc(F)cc3F)s2)cc1	u
C/C=C(\C)C(=O)OC1C(C)OC(OC2C(C)OC(OC3CCC4(C)C(=CCC5C4CCC4(C)C(C(C)OC6OC(COC7OC(CO)C(O)C(O)C7O)C(O)C(O)C6O)CCC54O)C3)CC2OC)C(O)C1OC (centres undefined)	-17.7%[5.1 µM]
CCOc1ccc(NC(=O)Cn2c(C)ccc(C#N)c2=O)cc1	1.2%
Cn1nccc1C(=O)NC1CCCN(c2cc(N3CCCC3)ncn2)C1 (centres undefined)	i
c1ccc(CN2CCC[C@H]2c2nc(-c3ccnc(N4CCOCC4)c3)no2)nc1	i
CC(C)NC(=O)N1CCOc2ccc(CCC(=O)NCCc3cccnc3)cc2C1	-9.5%
Cc1cc(N2CCOCC2)ccc1Nc1nc(NC2CCCCC2)c2[nH]cnc2n1	51.2%[activator]
CC(=O)c1ccc(N2CCN(S(=O)(=O)c3cc(-c4onc(C)c4C)ccc3C)CC2)cc1	-14.8%
Cc1ccc(CNC(=O)CSc2nc(=O)n(Cc3ccco3)c3c2CCC3)cc1	-27.6%
CCOC(=O)c1cc(-c2ccccc2)n(-c2cccc(C(=O)N(CC)c3ccccc3)c2)c1C	-9.3%
O=C(NCCc1ccc(Cl)cc1)c1cnc2sc(N3CCCC3)nn2c1=O	-29.2%
C/C=C(/C)C(=O)O[C@H]1[C@@H]2[C@H](C)C(=O)O[C@@H]2C[C@@H](C)[C@@H]2C=CC(=O)[C@]21C	14.7%
Cc1ccc([S+](=O)([O-])Nc2nn3c(=O)c4ccccc4nc3s2)cc1C	i
O=C(CNC(=O)c1ccccc1)N[C@@H](C(=O)Nc1cc(C(F)(F)F)ccc1Cl)c1ccccc1	-5.5%&-4.8%
CCCN(C(=O)Cn1ncc2c1-c1ccccc1OC2)c1cccc(C)c1	-7.7%
Cc1cc(C)cc(-n2c(SCC(=O)N3CCCCCC3)nc3c([nH]c4ccccc43)c2=O)c1	-16.1%
Fc1ccc(-c2nc(CCCCSc3nnc(-c4cccc5ccccc45)o3)no2)cc1	i

Next results follow.
SMILES	nsP2pro primary
Cc1ccc2[nH]c(CSc3nnc(C)s3)cc(=O)c2c1	-6.3%
Clc1cccc(-c2ccc(C3Nc4cccc5cccc(c45)N3)o2)c1	u
COC(=O)c1c(-c2cccs2)csc1NC(=O)c1ccc(OC)c(OC)c1	12.6µM*
C/C(=C\c1csc(C)n1)[C@@H]1C[C@@H]2O[C@]2(C)CCC[C@H](C)[C@H](O)[C@@H](C)C(=O)C(C)(C)[C@@H](O)CC(=O)O1	-3.5%
COC1CC(O[C@H]2CC[C@@]3(C)C(=CC[C@]4(O)C3[C@H](O)[C@@H](O)[C@]3(C)[C@@H]([C@H](C)O)CC[C@@]34O)C2)OC(C)C1OC1CC(OC)C(OC2CC(OC)C(OC3OC(C)C(OC4OC(CO)C(O)C(O)C4O)C(OC)C3O)C(C)O2)C(C)O1 (some centres undefined)	-5.3%[5.1 µM]
O=C(c1ccoc1)N1CCC(Nc2cccnc2)C1 (centres undefined)	u
Cc1ccc(-n2c(=O)c3c(cnn3C)n(CC(=O)Nc3ccccc3C)c2=O)cc1	-19.2%
Nc1nc(C2CC(O)C2)cc(N2CC(N3CCOCC3)C2)n1 (centres undefined)	i
CCC(CO)NC(=O)C(=O)Nc1c2c(nn1-c1ccc(F)cc1)CSC2 (centres undefined)	5.0%
CCc1cccc(NC(=O)C2CCN(S(=O)(=O)c3cccc(-c4noc(C)n4)c3)CC2)c1	-12.4%
O=C(/C=C/c1ccc(O)cc1)OCC1=C[C@@H](O)[C@@H]2C=CO[C@@H](O[C@@H]3O[C@H](CO)[C@@H](O)[C@H](O)[C@H]3O)[C@H]12	65.9%[activator][10 µM]
CCn1cc(C(=O)N2C[C@@H](CO)[C@H](c3ccccn3)C2)cn1	-3.5%
CN1CCC(OC2CCN(C(=O)COc3ccc(Cl)cc3)CC2)CC1	2.1%
Cc1cccn2c(=O)c(/C=C(\C#N)c3nc4ccccc4s3)c(Oc3ccc(Br)cc3)nc12	-36.9%
CC(C)c1nc(CNC(=O)c2ccc(NC3CCCCC3)nc2)no1	4.2%
O=C(O)/C=C/c1ccc(-c2ccc(O)c(C34CC5CC(CC(C5)C3)C4)c2)cc1	143.6%[activator]
Cc1nc(SCc2ccccc2Cl)c(C#N)c(C)c1C	-21.5%
CCOC(=O)N1CCC2(CC1)N=C(CCC(C)C)NC2=O	i
Clc1ccc2c(c1)-n1cc(-c3ccccc3)nc1CO2	10.4%
COCC1CN(Cc2cc(Br)ccc2OC)CC12CCNCC2 (centres undefined)	7.5%

Part of the list above in order of heavy-atom count, falling.
SMILES	nsP2pro primary
Cc1ccc(-n2c(=O)c3c(cnn3C)n(CC(=O)Nc3ccccc3C)c2=O)cc1	-19.2%
CCC(CO)NC(=O)C(=O)Nc1c2c(nn1-c1ccc(F)cc1)CSC2 (centres undefined)	5.0%
CCn1cc(C(=O)N2C[C@@H](CO)[C@H](c3ccccn3)C2)cn1	-3.5%

Further entries follow:
SMILES	nsP2pro primary
CCCn1c(-c2ccc(F)cc2)nc2c(NCCCN(C)C)nc(C)nc21	-4.5%
[O-][n+]1ccccc1SSc1cccc[n+]1[O-]	2.71µM*
O=C(CCC1CCCN(Cc2cc3ccccc3s2)C1)Nc1ccccc1F (centres undefined)	-7.5%
COc1cc2c(cc1NS(C)(=O)=O)C(c1cccc3c1OCO3)CC(=O)N2 (centres undefined)	i
COCC(=O)N[C@H]1C[C@@H](CO)N(Cc2cccc(OC)c2)C1	-9.1%
COc1cccc(C(=O)N(C)C2CCc3ccccc32)c1 (centres undefined)	1.2%[39.2 µM]
Cc1cccc(CNC(=O)C2CCc3sc(C(=O)N4CCOCC4)cc3C2)c1 (centres undefined)	u
COC(=O)c1ccc(COCC2=CC(C)(C)Oc3ccc(OC)cc32)cc1	i
O=C(NCc1ccccc1-c1ccccc1C(=O)NCCc1ccccn1)OCc1ccccc1	1.1%
O=c1[nH]c(=O)n([C@H]2O[C@H](CO)[C@@H](O)[C@@H]2O)cc1/C=C\Br	6.0%
Cn1c(CCNC(=O)c2ccco2)nc2cc(NC(=O)COc3ccc(Cl)cc3)ccc21	-16.0%
CC(/C=C/C(=O)NO)=C\[C@@H](C)C(=O)c1ccc(N(C)C)cc1	6.7%
CCOC(=O)Cn1cc2c(c1-c1ccc(Cl)cc1)c(=O)n(C)c(=O)n2C	u
O=S(=O)(Nc1ccc(C2CCNCC2)cc1)c1ccc(NCc2cccc(Cl)c2O)cc1	u
COc1ccc(-c2cnc([C@@H]3COCCN3Cc3nc4ccccc4n3C)[nH]2)cc1	i
CCCNC(=O)c1cc2nc(-c3ccc(Br)cc3)cc(C(F)(F)F)n2n1	-21.0%
COc1cccc(-c2ccc3ncnc(NCc4ccc5c(c4)OCO5)c3c2)c1	i
CN(Cc1ccco1)c1ncnc2ccc(-c3ccccc3Cl)cc12	-10.9%
Cc1ccc(NC(=O)Cn2nc(-c3ccccc3)nc(Cc3ccc(Cl)cc3)c2=O)cc1	-17.8%
COc1ccc2c(c1)/C(=C/c1cnc[nH]1)C(=O)N2	74.7%[activator]

(cont.)
SMILES	nsP2pro primary
CO/N=C(/C(=O)N[C@@H]1C(=O)N2C(C(=O)OCOC(=O)C(C)(C)C)=C(C)CS[C@H]12)c1csc(N)n1	-25.0%
COc1ccc(S(=O)(=O)Nc2cccnc2Nc2ccc(O)cc2)cc1	u
COc1cc(C[C@H]2C(=O)OC[C@@H]2Cc2ccc(OC)c(OC)c2)ccc1O	u
Cc1nnnn1CC(=O)N1CCCC(c2ccccc2)(c2ccccc2)C1	i
Cc1nn(-c2ccccc2)c2c1C(C1CC1)N(C1CCN([S+](=O)([O-])c3ccccc3)C1)C2=O (centres undefined)	i
CCOc1ccc(-n2c(SCC(=O)N3CCc4ccccc43)nc3c([nH]c4ccccc43)c2=O)cc1	-16.9%
O=C(OCC1OC(Oc2ccc(O)cc2COC(=O)C2(O)C(O)CCC(=O)C2OC(=O)C2C=CCC2)C(OC(=O)C2C=CCC2)C(O)C1O)C1C=CCC1 (centres undefined)	15.3%[10 µM]
Cc1nn(-c2ccccc2)c2c1N(CC(=O)NCc1ccc(N(C)C)cc1)C(=O)CS2	-20.7%
O=C1[C@H]2CN(Cc3c[nH]c4ccccc34)C[C@H]2C(=O)N1CCc1ccccc1	i
CCOc1ccccc1NC(=O)CN1C(=O)C(c2ccccc2)=NC12CCCCCC2	u
Cc1cccc(OCC(=O)Nc2ccccc2OCc2cc(=O)n3ccccc3n2)c1	-15.6%
O=C(C1CCC1)N1CCC[C@H]1c1nc(-c2ccc(F)cc2)n[nH]1	i
O=C(NCc1cccnc1)[C@@H]1C[C@@H](O)CN1C1CCN(C(=O)c2n[nH]c3ccccc23)CC1	-5.4%
CCN1C(=O)c2ccccc2Sc2ccc(NC(=O)N3CCN(c4cc(C)ccc4C)CC3)cc21	1.7%
CCNc1nc(NCc2ccc(F)cc2)c2cnn(C)c2n1	u
C=C1C(=O)O[C@@H]2[C@H]3C(C)=CC(=O)C3=C(C)[C@@H](OC(=O)/C(C)=C\C)[C@H](O)[C@@H]12	-29.9%
CCCN1CCC(c2cccc(S(C)(=O)=O)c2)CC1	-11.8%
CCOc1ccccc1CNC(=O)C1CCN(S(=O)(=O)c2cccc3nonc23)CC1	-11.4%
O=C(NC1CCCc2c1cnn2-c1ccc(F)cc1F)c1ccc(C(=O)c2ccccc2)cc1 (centres undefined)	-3.1%
CN1CC2(CCN(C(=O)c3cccn3C)CC2)CC(c2ccccc2)C1=O (centres undefined)	i

Entries shown so far containing a CF3 group:
SMILES	nsP2pro primary
O=C(CNC(=O)c1ccccc1)N[C@@H](C(=O)Nc1cc(C(F)(F)F)ccc1Cl)c1ccccc1	-5.5%&-4.8%
CCCNC(=O)c1cc2nc(-c3ccc(Br)cc3)cc(C(F)(F)F)n2n1	-21.0%

(more compounds)
SMILES	nsP2pro primary
CCN1CCN(C(=O)c2cc(-c3ccccc3)cn2C)CC1	-8.5%
CC(=O)O[C@@H]1[C@@H](O)[C@H](C)O[C@@H](O[C@H]2[C@@H]3C=CO[C@@H](O[C@@H]4O[C@H](CO)[C@@H](O)[C@H](O)[C@H]4O)[C@@H]3[C@@]3(CO)O[C@@H]23)[C@@H]1OC(=O)/C=C/c1ccccc1	-2.5%[10 µM]
Cc1cc(C(=O)N[C@@H]2CCC[C@@H](C(=O)NCc3cc(F)cc(F)c3)CC(=O)N(C)C2)no1	6.9%
Cc1csc(NC(=O)c2ccc(COc3cccc(Cl)c3)o2)n1	-0.2%
CC(=O)N1c2ccc(S(=O)(=O)NCc3ccc(Cl)cc3)cc2CC1C (centres undefined)	-17.3%
Cc1ccc(-c2nc(C3CC(=O)N(c4ccc(F)c(Cl)c4)C3)no2)cc1C (centres undefined)	i
O=C(O)c1ccc(O)c2ncc(N3CCCN(C4CCCC4)CC3)cc12	u
CN(C)C(=O)N1Cc2ccccc2OC2(CCN(C(=O)CCC(=O)OC(C)(C)C)CC2)C1	-13.6%
O=C1OC(c2ccc(O)cc2)C(O)=C1Cc1ccccc1 (centres undefined)	1.0%
O=C(NCCc1ccccn1)c1ccc(OC2CCNCC2)nc1	i
CCOC(=O)c1ccoc1-c1ccc2ncnc(NCc3ncc[nH]3)c2c1	-0.8%
COc1ccc(C(=O)N2CCC([C@@H]3CNC[C@H]3CO)CC2)cc1	i
Cc1ccccc1-c1noc(-c2cc3ccccc3oc2=O)n1	-20.4%
Cc1ccsc1C(=O)N1CCN(c2cc(-c3cccs3)[nH]n2)CC1	3.7%
COc1cccc(-c2nc(CS(=O)(=O)CC(=O)Nc3c(C)cc(C)cc3C)c(C)o2)c1	-20.9%
O=C(c1nnc(CN2CCN(c3ccccn3)CC2)n1-c1cccnc1)N1CCC[C@@H]1c1cccc(F)c1	0.2%
CC(C)CCNC(=O)c1ccc2c(c1)N(Cc1ccccc1F)C(=O)c1ccccc1S2(=O)=O	-11.6%
FC(F)(F)c1cccc(-c2nc(NCc3ccc(-c4ccnc(C(F)(F)F)c4)cc3)c3ccccc3n2)c1	-4.4%
Cc1cccc(-c2nc(CSc3nncn4c3cc3sccc34)c(C)o2)c1	-24.1%
Cc1nc(C2CC(O)C2)cc(N2CCN(c3cnn(C)c(=O)c3)CC2)n1 (centres undefined)	i

A run of entries from further up:
SMILES	nsP2pro primary
Cn1c(CCNC(=O)c2ccco2)nc2cc(NC(=O)COc3ccc(Cl)cc3)ccc21	-16.0%
CC(/C=C/C(=O)NO)=C\[C@@H](C)C(=O)c1ccc(N(C)C)cc1	6.7%

(continued)
SMILES	nsP2pro primary
COc1ccc(NC(=O)CCCc2nc(-c3ccco3)no2)c(OC)c1	-22.1%
O=C(NCCc1nc2ccccc2n1CCOc1ccc(C(F)(F)F)cc1)C1CCCCC1	-22.6%
CC(c1cccs1)N(C)Cc1ccncc1 (centres undefined)	-3.5%[39.2 µM]
CC(C)C[C@H](NC(=O)[C@@H](NC(=O)c1cccc(-c2ccccc2)n1)[C@@H](C)O)B(O)O	-4.6%&0.8%&-5.3%&-22.2%
COc1ccc(Br)cc1CNC(=O)c1cnc2sc(N3CCCC3)nn2c1=O	-19.9%
COc1ccc(CN2C3CC2CN(c2ccc(-c4cc(OCC(C)(C)O)cn5ncc(C#N)c45)cn2)C3)cn1	-12.6%
